Source: PubChem BioAssay (several laboratories)
Beta2AR agonist – beta2AR agonists driving receptor internalization, primary screen, cell-based, FAP fluorogen, flow cytometry. Beta-2 adrenergic receptor (Homo sapiens), P07550. Am2.2-beta2AR cells; reference of the scale not given here. response, % (test concentration not listed). 0.43% of 340,000 active. AID 504454, 2011;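 active means response above a set limit, near 3 SD of response in nonfluorescent compounds, cut at about 42% in these data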;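 further: stock transfer was 100 nL into about 11 µL; a reference agonist was the positive control; negative values mostly stem from fluorescent compounds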
Target sequence (P07550 whole entry, looked up): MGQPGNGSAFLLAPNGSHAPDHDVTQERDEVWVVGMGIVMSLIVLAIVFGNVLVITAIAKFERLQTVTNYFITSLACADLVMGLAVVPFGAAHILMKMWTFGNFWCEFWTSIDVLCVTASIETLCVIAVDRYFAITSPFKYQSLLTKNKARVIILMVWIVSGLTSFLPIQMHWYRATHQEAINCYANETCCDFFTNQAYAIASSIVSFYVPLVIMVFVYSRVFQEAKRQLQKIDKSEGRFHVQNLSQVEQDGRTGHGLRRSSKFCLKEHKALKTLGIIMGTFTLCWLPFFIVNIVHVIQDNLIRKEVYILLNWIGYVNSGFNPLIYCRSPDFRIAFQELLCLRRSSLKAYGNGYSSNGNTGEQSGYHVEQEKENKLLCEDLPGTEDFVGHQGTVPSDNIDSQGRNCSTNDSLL
RanGTP-Impb inh – inhibitors of RanGTP-importin-beta interaction, primary screen, biochemical, FRET, CFP-Ran, YFP-importin-beta, homogeneous. Ran GTPase (GTP-bound) - importin-beta complex. cell-free CFP-Ran/YFP-importin-beta FRET ratio. inhibition, % (test concentration not listed). 1.1% of 300,000 active. AID 2216, 2009;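 active means most replicates above 15%; inconclusive means exactly half above 15%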;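 further: 0% = DMSO wells and 100% = Ran loaded with GDP instead of GTP; wells of about 40 µL received 100 nL stock; the first replicate is given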
Vif A3G – inhibitors of Vif binding to APOBEC3G peptide, primary screen, biochemical, TR-FRET, GST-Vif 1-94, biotin-A3G peptide, dose response retest (AID 1117319). TR-FRET GST-Vif / biotin-A3G peptide binding; higher % means a stronger effect; test concentration not given here; strong numbers were not always called active. Virion infectivity factor (Human immunodeficiency virus type 1 group M subtype B (isolate …. one-dose inhibition, %; IC50 in µM for titrated hits. 0.57% of 260,000 active;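 active means above the screen mean plus three standard deviations and confirmed in dose response; inconclusive means results disagree or hit not tested in dose response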;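 further: Vif residues 1-94 fused to GST binding biotinylated APOBEC3G peptide 110-148; 0% = full assay without inhibitor and 100% = GST in place of GST-Vif; retest series ran down from 100 µM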
ALR H2O2 inh – inhibitors of human ALR sulfhydryl oxidase, primary screen, biochemical, H2O2 detection, HRP-luminol luminescence, single point | FAD-linked sulfhydryl oxidase ALR (Homo sapiens), P55789 | purified ALR, DTT oxidation | inhibition, % (no concentration beside the values) | 3.8% of 290,000 active | AID 485317, 2010;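 active means mean and each replicate at 75% or more; inconclusive means only one of the two met; inactive means neither met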;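 further: stock transfer was 7.5 nL into about 7.5 µL; 0% = neutral wells and 100% = wells with inactivated enzyme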
Target sequence (P55789 whole entry, looked up): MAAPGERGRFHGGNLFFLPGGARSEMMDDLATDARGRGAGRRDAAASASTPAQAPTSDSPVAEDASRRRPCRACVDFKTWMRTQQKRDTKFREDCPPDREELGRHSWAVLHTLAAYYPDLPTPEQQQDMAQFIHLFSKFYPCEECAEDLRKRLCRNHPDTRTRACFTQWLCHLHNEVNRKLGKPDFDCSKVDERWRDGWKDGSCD
Calb FLC – C. albicans growth inhibition with fluconazole, primary screen, CaCi-2 strain, Alamar Blue fluorescence; 0.57% of 300,000 active; C. albicans CaCi-2 (fluconazole-resistant clinical isolate) + fluconazole, 48 h; growth inhibition, % (no concentration beside the values); AID 1979, 2009;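 active means most replicates above 75%; inconclusive means exactly half above 75%; inactive means most below 75%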;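 further: all wells also contain fluconazole at 8 µg/ml as a sub-toxic cotreatment; 0% = median of DMSO wells and 100% = median of geldanamycin control wells; wells of about 8 µL received 7.5 nL stock; the first replicate is given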
LANA-H2A inh – blockers of LANA interaction with H2A/H2B – biochemical, FP readout, HTS, primary screen; Protein LANA1 (Human herpesvirus 8 type P (isolate GK18)), Q9QR71; cell-free LANA-H2A/H2B peptide, fluorescence polarization; inhibition, % (concentration not given with the values); 0.6% of 320,000 active; in the data active means inhibition mostly above about 10%, no sharp cut-off; inactive means mostly below about 6.7%;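 further: stock transfer was 7.5 nL into about 10 µL; 0% = median of vehicle wells and 100% = median of positive control wells; one replicate is shown; the record names a cut of 25% in any replicate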
HNF4A DNA FP – change in binding of human HNF4A to DNA, primary screen, biochemical, fluorescence polarization, FITC-DNA | 1 h | activity change, % at 10 µM | 0.3% of 360,000 active | AID 1224865, 2016; in the data active means activity change above about 30%, passing the limit was not always enough;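 further: controls were the assay level and a saturating level of protein; the project sought stronger binding though the title names inhibitors; some compounds called inactive have numbers as strong as hits; positive values seem to mean higher polarization but the record does not say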
Target sequence (P41235 whole entry, looked up): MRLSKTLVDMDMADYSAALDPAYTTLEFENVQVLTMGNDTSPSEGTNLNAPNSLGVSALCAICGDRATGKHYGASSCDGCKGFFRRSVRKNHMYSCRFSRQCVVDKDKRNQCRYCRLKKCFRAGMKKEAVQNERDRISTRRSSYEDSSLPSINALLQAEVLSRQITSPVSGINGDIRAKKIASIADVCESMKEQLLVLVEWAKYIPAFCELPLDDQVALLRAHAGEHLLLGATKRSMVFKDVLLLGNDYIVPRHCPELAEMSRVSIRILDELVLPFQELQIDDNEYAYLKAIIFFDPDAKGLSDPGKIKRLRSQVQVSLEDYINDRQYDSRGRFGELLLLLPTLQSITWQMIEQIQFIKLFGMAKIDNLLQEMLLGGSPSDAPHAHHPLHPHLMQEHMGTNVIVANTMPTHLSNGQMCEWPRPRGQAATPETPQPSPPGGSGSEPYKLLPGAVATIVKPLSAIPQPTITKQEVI
* hit, by the source's call; ? = inconclusive; / = no result given; & = joins results of further samples.

SMILES	Beta2AR agonist	RanGTP-Impb inh	Vif A3G	ALR H2O2 inh	Calb FLC	LANA-H2A inh	HNF4A DNA FP
Cc1nn(C)c(C)c1C(C)NC(=O)c1ccc(OC2CCN(Cc3ccccn3)CC2)cc1 (configuration not stated)	-4.4	4.2	/	-5.7	-0.3	/	-0.8
CCCc1nc2c(=O)n(C)c(=O)[nH]c2n1CCC	-3.0	1.9	-1.1%	3.5	-4.7	3.2	-3.1
O=C1CCN(C(=O)/C=C/c2ccccc2)c2ccccc21	-3.5	3.3	?	-3.2	-7.5	-1.4	2.6
COc1ccccc1NC(=S)NCc1ccc2c(c1)OCO2	1.2	-0.4	-2.8%	-14.6	-2.0	-0.5	-0.2
Cc1ccc(S(=O)(=O)NCCC(=O)N2CC(C)OC(C)C2)cc1C (configuration not stated)	12.7	2.5	9.0%	-0.8	5.4	-1.0	-2.3
COc1ccc(C(=O)N2CCC(C(=O)N3CCN(c4ccc(OC)cc4)CC3)CC2)cc1	0.8	-0.9	1.4%	68.1	-7.9	2.5	0.1
COc1cc(N2CCCC2)c(OC)cc1/C=C(/C#N)c1ccc(F)cc1	-257.0	-83.0	8.7%	-3.5	2.0	-68.9*	82.1
Cc1ccc(N2C(=O)C3Sc4[nH]c(=O)sc4C(c4ccccc4)C3C2=O)cc1 (configuration not stated)	2.7	/	14.7%	28.8	/	3.4	-0.3
O=C(OC(C(=O)NC1CCCC1)c1ccncc1)C1=Cc2ccccc2OC1 (configuration not stated)	-11.3	5.3	19.8%	-7.1	2.4	4.2	1.2
COCc1nnc(NC(=O)c2ccc(S(=O)(=O)N(C)c3ccccc3)cc2)o1	0.7	2.7	12.4%	19.6	14.6	1.8	2.5
O=C(O)c1ccc(Cl)c(S(=O)(=O)Nc2ccccc2C(=O)Nc2ccc(Cl)cc2)c1	4.6	-1.4	/	20.1	8.4	11.0	-0.2
Nc1nc2n(n1)C(c1ccco1)CC(c1ccc(Cl)cc1Cl)N2 (configuration not stated)	-8.2	1.3	-0.8%	39.1	-5.7	-1.4	2.1
CCN(c1ccc(C)cc1C)S(=O)(=O)c1nnc(NC(=O)c2ccco2)s1	8.9	?	/	10.6	?	-9.8	1.3
Cn1nnc(C(O)CN2CCOCC2)n1 (configuration not stated)	4.3	?	1.1%	-8.2	-2.6	0.1	-0.8
COc1ccc(S(=O)(=O)N2CCN(C(=O)c3cccc(Cl)c3)CC2)cc1	5.4	3.7	19.6%	-3.6	-16.2	-5.2	-6.2
O=C1NC2(CCCCC2)OC12CCCCC2	-4.9	/	-0.6%	/	/	/	4.2
O=C(COc1ccc2ccccc2c1Br)NC(=S)Nc1cccc(CO)c1	6.6	-1.1	-84.1%	-3.3	5.1	-0.2	3.0
CC1CCN(CCCCOc2ccc([N+](=O)[O-])cc2)CC1	-3.1	-0.8	3.4%	-1.5	-7.6	2.9	0.9
O=C(NCCCNCc1ccccc1)c1ccccn1	-0.5&13.3	4.0	0.6%&2.8%	0.0	3.8	-1.5	1.3&-3.5
CC(=O)n1cc([C@H]2C=C(C(=O)Nc3ccccc3)O[C@@H](OCCCCO)C2)c2ccccc21	5.4	0.7	/	-0.8	-3.1	-2.3	1.7

Results in Calb FLC and Vif A3G, for some of the entries so far:
mol | Calb FLC | Vif A3G
CCN(c1ccc(C)cc1C)S(=O)(=O)c1nnc(NC(=O)c2ccco2)s1 | ? | /
Cn1nnc(C(O)CN2CCOCC2)n1 (configuration not stated) | -2.6 | 1.1%
COc1ccc(S(=O)(=O)N2CCN(C(=O)c3cccc(Cl)c3)CC2)cc1 | -16.2 | 19.6%
O=C1NC2(CCCCC2)OC12CCCCC2 | / | -0.6%
O=C(COc1ccc2ccccc2c1Br)NC(=S)Nc1cccc(CO)c1 | 5.1 | -84.1%

The listing continues.
SMILES	Beta2AR agonist	RanGTP-Impb inh	Vif A3G	ALR H2O2 inh	Calb FLC	LANA-H2A inh	HNF4A DNA FP
Cc1cc(/C=C(\C#N)C(=O)O)c(C)n1CC1CCCO1 (configuration not stated)	4.6	-3.7	/	28.3	-4.6	-8.2	0.8
NC(=O)c1cccn1Cc1ccccc1Cl	8.2	-4.8	6.1%	-3.5	-9.6	1.8	-0.5
O=[N+]([O-])c1ccc(N2CCN(c3cccc(Cl)c3)CC2)cn1	1.7	-0.3	/	/	-48.5	8.9	4.2
O=C(CSc1ccc2nnc(-c3cccs3)n2n1)N1CCCC1	-1.4	2.3	2.9%	-1.6	-9.7	1.6	-1.8
S=C(NCCc1ccccc1)NCCN1CCOCC1	7.5	2.0	/	-1.4	-0.6	0.4	2.7
COc1ccccc1NS(=O)(=O)c1c(C(=O)N2CCCC2)c(C)n(C)c1C	7.2	8.0	-5.3%	-7.7	3.0	2.7	-1.4
C/C(CCc1ccccc1)=N\NC(=O)CC(=O)NCCc1ccccc1	-5.4	?	-7.7%	4.9	5.6	3.5	1.0
O=C(NCc1cn(-c2ccccc2)nc1-c1ccccc1)c1cccc([N+](=O)[O-])c1	-6.0	-1.6	/	-12.5	3.6	-2.7	1.3
O=[N+]([O-])c1cc(S(=O)(=O)NCCN2CCOCC2)ccc1Sc1nnnn1-c1ccccc1	4.8	5.0	26.7%	/	3.3	1.4	4.0
Cc1cc2c(sc3c(C)ccc(C)c32)c(C)n1	10.9	3.1	/	-31.3	-30.2	-0.3	0.2

Individual results from the entries so far:
Calb FLC, `Cc1cc(/C=C(\C#N)C(=O)O)c(C)n1CC1CCCO1` (configuration not stated) stands at -4.6
Beta2AR agonist, `O=[N+]([O-])c1cc(S(=O)(=O)NCCN2CCOCC2)ccc1Sc1nnnn1-c1ccccc1` stands at 4.8

Continued:
SMILES	Beta2AR agonist	RanGTP-Impb inh	Vif A3G	ALR H2O2 inh	Calb FLC	LANA-H2A inh	HNF4A DNA FP
CC(C)c1ccc(NC(=O)C(c2ccccc2)N2CCN(C(=O)c3ccco3)CC2)cc1 (configuration not stated)	-4.7	-1.7	1.2%	-0.7	1.1	1.9	1.3
O=C(c1ccco1)N1CCN(Cc2cn[nH]c2-c2cccc3ccccc23)CC1	5.5	1.8	0.0%	-17.2	-5.0	4.9	-4.7
c1coc(CNc2nc3nonc3nc2NCc2ccco2)c1	-6.0	/	19.8%	-2.4	/	5.8	-0.1
CCOC(=O)c1c(C)nc(SCC(N)=O)c(C#N)c1-c1ccccc1	4.8	-1.4	/	3.5	30.5	-3.2	-4.3
O=C(Cn1ccccc1=O)c1ccc(Cl)cc1	-6.5	-0.4	3.3%	-10.7	?	-0.1	-1.1
O=C(c1ccccc1)C1CC=CCC1C(=O)c1ccccc1 (configuration not stated)	43.8*	/	1.3%	/	/	/	1.4
O=C(NC1CCCCC1)c1n[nH]c2c1CC(c1ccccc1)CC2 (configuration not stated)	-1.6	/	/	-21.0	/	3.3	3.8
COCCCNC(=O)CSc1nc2sc(C(=O)OC)c(C)c2c(=O)n1N	2.4	-1.6	-2.9%	1.5	-7.4	/	-2.1
CCN1CCN(CC(=O)Nc2nc3ccc(C)cc3s2)CC1	-0.5	1.7	-0.1%	-13.9	-0.7	4.0	-0.8
COc1ccc(Cl)cc1C(=O)Nc1nc2ccc(S(C)(=O)=O)cc2s1	/	1.9	/	-1.7	-6.0	-0.3	/

Reprinted at random: five compounds from above, in no set order.
SMILES	Beta2AR agonist	RanGTP-Impb inh	Vif A3G	ALR H2O2 inh	Calb FLC	LANA-H2A inh	HNF4A DNA FP
CC(C)c1ccc(NC(=O)C(c2ccccc2)N2CCN(C(=O)c3ccco3)CC2)cc1 (configuration not stated)	-4.7	-1.7	1.2%	-0.7	1.1	1.9	1.3
O=C(c1ccccc1)C1CC=CCC1C(=O)c1ccccc1 (configuration not stated)	43.8*	/	1.3%	/	/	/	1.4
CCOC(=O)c1c(C)nc(SCC(N)=O)c(C#N)c1-c1ccccc1	4.8	-1.4	/	3.5	30.5	-3.2	-4.3
O=C(c1ccco1)N1CCN(Cc2cn[nH]c2-c2cccc3ccccc23)CC1	5.5	1.8	0.0%	-17.2	-5.0	4.9	-4.7
COc1ccc(Cl)cc1C(=O)Nc1nc2ccc(S(C)(=O)=O)cc2s1	/	1.9	/	-1.7	-6.0	-0.3	/

Next section.
SMILES	Beta2AR agonist	RanGTP-Impb inh	Vif A3G	ALR H2O2 inh	Calb FLC	LANA-H2A inh	HNF4A DNA FP
CCCNC(=O)c1ccccc1NC(=O)c1ccccc1N(C)S(=O)(=O)c1ccccc1	-4.9	-2.8	18.1%	-7.1	19.6	-0.1	1.0
COc1ccccc1Nc1nc(N2CCOCC2)nc(N2CCOCC2)n1	11.9&7.5	2.2&5.5	/	0.3&-2.3	-15.9&4.4	0.8&0.3	-4.8&6.8
Nc1nc(NCCOCCO)nc(Nc2cccc(F)c2)c1[N+](=O)[O-]	0.3	-1.2	-8.5%	16.8	4.4	5.4	4.5
CCCn1c(CN2CCN(c3cccc(Cl)c3)CC2)nc2c1c(=O)n(C)c(=O)n2C	14.0	3.4	1.7%	-19.1	-2.5	4.8	-0.4
COc1cc(/C=C/c2onc(C)c2[N+](=O)[O-])cc(OC)c1OC	3.6	-3.0	/	-1.6	-1.2	-1.8	1.3
CCc1cc2c(=O)c(-c3cnn(-c4ccccc4)c3)c(C)oc2cc1OCC(=O)Nc1cccc(C)c1	-0.6	2.9	/	-2.7	-8.5	-1.5	0.8
O=C(CSc1nc2ccccc2c(=O)[nH]1)N1CCN(c2ccccc2)CC1	0.4	-1.2	/	2.0	0.9	-5.0	3.4
O=C(CCCn1c(=O)oc2ccccc21)N1CCN(c2ccccn2)CC1	-20.8	-0.9	/	-7.0	-4.1	1.3	1.7
COc1ccc(C(=O)OCc2nnc(-c3ccccc3)o2)cc1S(=O)(=O)N1CCOCC1	7.1	-0.2	-8.3%	/	-6.3	-0.9	1.7
CCCNC(=O)c1nc(C)n(-c2cc(Cl)cc(Cl)c2)n1	-5.2	-0.7	-0.9%	1.3	-4.2	5.4	-0.2
CS(=O)(=O)N1N=C(c2ccco2)CC1c1ccccc1Cl (configuration not stated)	8.3	1.9	11.5%	-4.0	-6.2	2.7	2.0
COc1cccc2cc(C(C)=O)oc12	-2.4	-1.9	-1.5%	4.5	-0.8	-1.1	-1.0
CC1CCCN(C(=O)CSc2nc3ncccc3[nH]2)C1 (configuration not stated)	-7.2	-2.1	/	-7.2	3.8	-0.1	0.8
O=C(CSc1ccccc1)N/N=C/c1ccccc1O	-1.7	?	-6.3%	-10.6	1.7	-3.6	1.1
CC(C)Sc1nc2ccsc2c(=O)[nH]1	-1.4	-0.5	-13.7%	2.4	-2.5	1.8	-2.5
Cn1nc(-c2ccc(Cl)cc2)cc1NC(=O)CC(C)(C)CC(=O)O	0.4	-1.5	-9.2%	-6.9	9.2	1.9	-1.9
CCN(C(=O)CSc1nc(-c2ccccc2)cn1N)c1c(N)n(Cc2ccccc2)c(=O)[nH]c1=O	-2.4	/	-4.4%	0.6	-3.3	4.1	-0.3
COc1ccc(C(=O)NC(Cc2c[nH]c3ccccc23)C(=O)O)cc1 (configuration not stated)	9.2	0.1	0.0%	-15.2	-9.9	-5.1	-3.3
O=C(CN(C(=O)C1COc2ccccc2O1)c1ccccc1)NCC1CCCO1 (configuration not stated)	-2.0	-1.5	16.9%	-16.9	9.0	-1.5	-3.9
COc1cc2cc(Oc3ccc4ccc(=O)oc4c3)c(=O)oc2cc1OC(C)=O	7.3	?	9.8%	-9.2	9.2	-0.7	-0.4
O=C(CCSc1ccc(Cl)cc1)NC1CCCC1	2.8	4.4	/	-0.1	5.2	-9.1	-0.8
